Mtb bLac sens = beta-lactam sensitization of Mtb H37Rv. inhibition, % at 25 µM. AID 434955. hit rate 0.27% among 330,000. M. tuberculosis H37Rv growth with meropenem, percent inhibition; hits of this screen are not shown here;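 active = about 74% or more and at least 40 points above the plate without the antibiotic, then above 30% in a dose series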;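 also: growth measured after seven days incubation then overnight dye step; 0% = bacteria only wells and 100% = bacteria with antibiotic; twin plates without the antibiotic show which effects depend on it; some results filed as inactive read as strong as hits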
* hit, by the source's call. Not all compounds are listed; the hit share may differ from the screen's.

What do the screens show for `CCOc1ccccc1CNc1ncnc2ccc(-c3c(C)noc3C)cc12`?
Mtb bLac sens: 6

What do the screens show for `Nn1c(SCC(=O)NC2CCCCC2)nnc1-c1ccco1`?
Mtb bLac sens: -7

What do the screens show for `O=C(C[C@H]1C/C=C\C[C@H](Cc2ccc(F)cc2)C(=O)OC[C@@H]2CCCN2C1=O)N[C@H](CO)Cc1ccccc1`?
Mtb bLac sens: -1

What do the screens show for `O=C(OCC(=O)N1CCCC1)c1ccccc1C(=O)c1ccccc1`?
Mtb bLac sens: -2

Results for O=C(c1cc(-c2ccco2)nc2ccccc12)N1CCN(Cc2ccccc2)CC1 ?
Mtb bLac sens: 1

Results for Cc1ccc(S(=O)(=O)N2CCCCC2)cc1NC(=O)c1c(-c2ccccc2)noc1C ?
Mtb bLac sens: -1

How did Cc1ccc(-c2cc(C(=O)N/N=C/c3ccccc3O)n[nH]2)o1 do in these assays?
Mtb bLac sens: -4

Results for Cc1ccc(C(=O)NCC(=O)NCc2ccccc2F)s1 ?
Mtb bLac sens: -13

Results for Cn1sccc1=O ?
Mtb bLac sens: 73

How did CC(C)C[C@H](NC(=O)c1nc[nH]c1C(=O)N[C@@H](CCCCN)C(=O)OC(C)(C)C)C(=O)OC(C)(C)C do in these assays?
Mtb bLac sens: 3

Results for CCC(C)Sc1cc(-c2nc3ccc(Cl)cn3c2NC2CCCCC2)ccc1OC (stereo not given) ?
Mtb bLac sens: 1

How did CC(=O)N1CCN(C(=O)COC(=O)COc2c(C)cc(C)cc2C)CC1 do in these assays?
Mtb bLac sens: 0

How did Cc1ccc(C(=O)NCCCN2CCOCC2)cc1S(=O)(=O)N1CCOCC1 do in these assays?
Mtb bLac sens: -2

What do the screens show for `N#Cc1ccccc1NC(=O)COC(=O)C1CCN(C(=O)c2ccc(Cl)cc2)CC1`?
Mtb bLac sens: -10

Results for Cc1c(NC(=O)c2cc(S(=O)(=O)N3CCCCC3)ccc2Cl)c(=O)n(-c2ccccc2)n1C ?
Mtb bLac sens: -3

How did Cc1cccc(NC(=O)c2ccc(NC(=O)CC3SC(N4CCCC4)=NC3=O)cc2)n1 (stereo not given) do in these assays?
Mtb bLac sens: -9

Results for CCOC(=O)C1CCCN(S(=O)(=O)c2cc(Br)cc3c2N(C(=O)CC)CC3)C1 (stereo not given) ?
Mtb bLac sens: -6

Results for CC(=O)Nc1ccc(S(=O)(=O)N(C)CC(=O)NNC(=O)Cc2nc3ccccc3n2C)cc1 ?
Mtb bLac sens: -1

Results for COC(=O)c1ccc(C)c(NC(=O)CSc2nnc3ccccn23)c1 ?
Mtb bLac sens: 1

What do the screens show for `COc1cccc(OC)c1C(=O)Nc1ccc(N2CCCC2)cc1`?
Mtb bLac sens: 9

Continued (five carried over from the part before).
How did Cc1cccc(NC(=O)c2ccc(NC(=O)CC3SC(N4CCCC4)=NC3=O)cc2)n1 (stereo not given) do in these assays?
Mtb bLac sens: -9

Results for CCOC(=O)C1CCCN(S(=O)(=O)c2cc(Br)cc3c2N(C(=O)CC)CC3)C1 (stereo not given) ?
Mtb bLac sens: -6

Results for CC(=O)Nc1ccc(S(=O)(=O)N(C)CC(=O)NNC(=O)Cc2nc3ccccc3n2C)cc1 ?
Mtb bLac sens: -1

Results for COC(=O)c1ccc(C)c(NC(=O)CSc2nnc3ccccn23)c1 ?
Mtb bLac sens: 1

What do the screens show for `COc1cccc(OC)c1C(=O)Nc1ccc(N2CCCC2)cc1`?
Mtb bLac sens: 9

What do the screens show for `Cc1cc(C)cc(OCC(=O)OCC(=O)NC2CC2)c1`?
Mtb bLac sens: 0

How did CC1CCN(C(=O)c2[nH]cnc2C(=O)NCc2ccccc2)CC1 do in these assays?
Mtb bLac sens: -2

Results for COc1cccc(CN2C(=O)c3ccccc3S2(=O)=O)c1 ?
Mtb bLac sens: 0

What do the screens show for `CCCCCCSc1ccc(-c2nc3cnccn3c2NCCCC)cc1`?
Mtb bLac sens: 100

Results for O=C(CC1SC(N2CCOCC2)=NC1=O)Nc1cccc(C(F)(F)F)c1 (stereo not given) ?
Mtb bLac sens: 5

What do the screens show for `COc1ccc(NC(=O)Nc2cccc3c2O[C@H](CN(C)C(=O)Nc2ccccc2)[C@@H](C)CN([C@H](C)CO)C3=O)cc1`?
Mtb bLac sens: 2

Results for COc1ccc(-c2ccc3c(c2)S(=O)(=O)c2cccc(C(=O)NCc4cc(C)oc4C(F)(F)F)c2C3=O)cc1OC ?
Mtb bLac sens: 6

What do the screens show for `CCCN(CCC)Cc1c(C(=O)N/N=C/CCc2ccccc2)nnn1-c1nonc1N`?
Mtb bLac sens: 1

How did COc1ccc(C2(c3ccc(OC)cc3)NC(=O)N(CC(=O)N3CCOCC3)C2=O)cc1 do in these assays?
Mtb bLac sens: -17

What do the screens show for `CCCCCCCC(=O)O`?
Mtb bLac sens: -3

How did O=C(/C=C/c1ccc([N+](=O)[O-])cc1)OCC(=O)N1CCCC1 do in these assays?
Mtb bLac sens: -4

How did Cc1ccc(NS(=O)(=O)c2cccc(C(=O)NCC(c3ccco3)N3CCCC3)c2)cc1 (stereo not given) do in these assays?
Mtb bLac sens: -10

Results for Cc1c(Cl)cccc1NC(=O)CCS(=O)(=O)c1cccc2nonc12 ?
Mtb bLac sens: 0

What do the screens show for `Cn1c(-c2ccsc2)c(-c2cccs2)c2cc(-c3cccc4[nH]ccc34)ccc21`?
Mtb bLac sens: 9

Results for O=C1NC(Cc2ccccc2)c2nc3cc(F)ccc3c(=O)n2-c2cc(Cl)ccc21 (stereo not given) ?
Mtb bLac sens: -2

Results for N#Cc1cccc(S(=O)(=O)NCC(=O)NCc2ccc3c(c2)OCO3)c1 ?
Mtb bLac sens: -5

How did CSc1nc(N)nc2c1ncn2CC(=O)NCC(c1ccccc1)c1ccccc1 do in these assays?
Mtb bLac sens: 4

Results for CCOC(=O)N1CCN(C(=O)CNC(=O)c2ccccc2F)CC1 ?
Mtb bLac sens: -1

How did COc1ccc2c(c1)[C@H]1[C@H](CO2)[C@H](c2ccccc2)[C@]2(C)C(=O)Nc3ccccc3C(=O)N12 do in these assays?
Mtb bLac sens: -2

What do the screens show for `O=C(CN1C(=O)NC2(CCCCC2)C1=O)N1CCN(c2ncccn2)CC1`?
Mtb bLac sens: -4

Random excerpt: two compounds from above.
What do the screens show for `CCOc1ccccc1CNc1ncnc2ccc(-c3c(C)noc3C)cc12`?
Mtb bLac sens: 6

What do the screens show for `O=C(C[C@H]1C/C=C\C[C@H](Cc2ccc(F)cc2)C(=O)OC[C@@H]2CCCN2C1=O)N[C@H](CO)Cc1ccccc1`?
Mtb bLac sens: -1

Next section
How did O=C(COC(=O)c1ccc(Br)cc1)NC(=O)NCc1ccccc1 do in these assays?
Mtb bLac sens: 19

How did O=C(Nc1ccc(S(=O)(=O)N2CCCC2)cc1)C1CC(=O)N(CCc2ccc(F)cc2)C1 (stereo not given) do in these assays?
Mtb bLac sens: 7

What do the screens show for `COc1ccc(C2(c3ccc(OC)cc3)NC(=O)N(CC(=O)Nc3cc(C)on3)C2=O)cc1`?
Mtb bLac sens: 0

How did CCC1(c2ccc(Cl)cc2)NC(=O)N(CC(=O)N2CCN(C(=O)c3ccco3)CC2)C1=O (stereo not given) do in these assays?
Mtb bLac sens: -10

How did CC(=O)NC12CC3CC(C1)CC(C(=O)N(C)CC(=O)Nc1cccc(F)c1)(C3)C2 do in these assays?
Mtb bLac sens: 4

Results for CC1CCCCC1NC(=O)COc1ncnc2sccc12 (stereo not given) ?
Mtb bLac sens: -5

Results for COC(=O)[C@]1(Cc2ccccc2)N[C@H](CN(C)C(=O)c2ccc(F)cc2)[C@@H]2C(=O)N(Cc3ccccc3)C(=O)[C@@H]21 ?
Mtb bLac sens: 1

Results for COc1ccc(-c2oc(=O)c3cc(OC)c(OC)cc3c2C#CC2(O)CCCCC2)cc1 ?
Mtb bLac sens: 4

How did COc1ccc(CCNC(=O)c2ccc(Cl)c(S(=O)(=O)N3CCCCCC3)c2)cc1 do in these assays?
Mtb bLac sens: -3

Results for CC(=O)COC(=O)c1ccc2noc(-c3ccccc3)c2c1 ?
Mtb bLac sens: -5

What do the screens show for `COc1cc(/C=C/C(O)=C/C(=O)/C=C/c2ccc(O)cc2)ccc1O`?
Mtb bLac sens: -9

What do the screens show for `O=C(CN1C(=O)C(=O)N(C2CCCC2)C1=O)Nc1ccccc1OC(F)F`?
Mtb bLac sens: -1

Results for O=C(COC(=O)Cc1ccsc1)Nc1ccc(F)cc1Cl ?
Mtb bLac sens: 3

What do the screens show for `CC(Oc1ccc2c(-c3ccccc3)cc(=O)oc2c1)C(=O)NC(Cc1c[nH]c2ccc(O)cc12)C(=O)O` (stereo not given)?
Mtb bLac sens: -4

How did COc1cc(OC)cc(-c2c(-c3cccs3)c3cc(-c4ccc5cc[nH]c5c4)ccc3n2C)c1 do in these assays?
Mtb bLac sens: -3

Results for Cc1cc(Oc2nc3ccccn3c(=O)c2/C=C(\C#N)C(=O)NC2CCS(=O)(=O)C2)ccc1Cl (stereo not given) ?
Mtb bLac sens: -1

How did C[C@H](CO)N1C[C@H](C)[C@@H](CN(C)S(=O)(=O)c2cccs2)Oc2ccc(NC(=O)Nc3ccccc3)cc2C1=O do in these assays?
Mtb bLac sens: -7

How did CCN(CC)C(=O)[C@H]1CC(CC(=O)NC(C)(C)C)C(=O)N2CCc3c([nH]c4ccccc34)[C@]12C (stereo not given in full) do in these assays?
Mtb bLac sens: -2

How did CC(=O)Nc1ccc(NC(=O)C(C)OC(=O)c2ccc(S(=O)(=O)N3CCCCC3)cc2)cc1 (stereo not given) do in these assays?
Mtb bLac sens: 2

How did CC1(C)CC(NC(=O)c2cccc(S(=O)(=O)Nc3cccc(Cl)c3)c2)CC(C)(C)N1 do in these assays?
Mtb bLac sens: -7

What do the screens show for `CSc1nnc(-c2ccc(S(=O)(=O)N3CCCCC3)cc2)o1`?
Mtb bLac sens: -6

How did CCCCN1C(Nc2ccccc2)=NC[C@@H]1C do in these assays?
Mtb bLac sens: -2

How did COC(=O)c1ccc(CN(C)S(=O)(=O)c2cccs2)cc1 do in these assays?
Mtb bLac sens: -23

Results for COc1ccc(CCC(=O)Nc2ccc(S(=O)(=O)N3CCCC3)cc2)cc1OC ?
Mtb bLac sens: 1

What do the screens show for `O=C(NCc1ccc(OC(F)(F)F)cc1)c1cccc2c1C(=O)c1ccc(N3CCCC3)cc1S2(=O)=O`?
Mtb bLac sens: 6

Results for Fc1cccc(CCN2CCNC[C@@H]2CC2CCCCC2)c1 ?
Mtb bLac sens: -8

Results for CN(CC(=O)Nc1ccccc1Br)C(=O)c1sccc1-c1ccccc1 ?
Mtb bLac sens: 5

What do the screens show for `CC1CCCN(C(=O)c2cc(-c3cccs3)nc3ccccc23)C1` (stereo not given)?
Mtb bLac sens: 1

Results for COc1cccc(NC(=O)CSc2nc(C3CC3)nc3ccccc23)c1 ?
Mtb bLac sens: 10

What do the screens show for `CCN(CC(=O)Nc1ccccc1C(F)(F)F)C(=O)C1CCN(C(=O)Nc2ccccc2)CC1`?
Mtb bLac sens: -1

What do the screens show for `Cc1cc([N+](=O)[O-])nn1Cc1noc(C(=O)NCc2ccc3c(c2)OCO3)n1`?
Mtb bLac sens: -9

Results for COc1cccc(NC(=O)CN(C)C(=O)c2cccc(S(=O)(=O)N3CC4(C)CC3CC(C)(C)C4)c2)c1 (stereo not given) ?
Mtb bLac sens: -3

How did COc1cc(/C=C/C(=O)/C=C(O)/C=C/c2ccc(O)c(OC)c2)ccc1O do in these assays?
Mtb bLac sens: -9

What do the screens show for `COc1ccc(NC(=O)N(C)C[C@H]2Oc3c(NS(=O)(=O)c4cn(C)cn4)cccc3C(=O)N([C@H](C)CO)C[C@@H]2C)cc1`?
Mtb bLac sens: -2

Results for O=C(CN1CCN(S(=O)(=O)c2ccc(Cl)cc2)CC1)NCC1(N2CCOCC2)CCCCC1 ?
Mtb bLac sens: 5

How did O=C(Nc1nc(-c2ccc(F)c(F)c2)cs1)C1=COCCO1 do in these assays?
Mtb bLac sens: -6

How did O=C(O)c1cccc(OS(=O)(=O)c2cc(Br)ccc2Br)c1 do in these assays?
Mtb bLac sens: -4

Results for O=C(CCl)Nc1cccc(S(=O)(=O)NC2=NCCCCC2)c1 ?
Mtb bLac sens: 80

Results for CCOc1ccccc1C(=O)N[C@H](C(=O)NNC(=O)c1cccs1)C(C)C ?
Mtb bLac sens: 2

What do the screens show for `CN(CC(=O)Nc1ccc(N2CCOCC2)cc1)C(=O)CCc1cc(C(C)(C)C)c(O)c(C(C)(C)C)c1`?
Mtb bLac sens: -5

What do the screens show for `COc1cccc(CN2CCNC(=O)C2CC(=O)NCCN2CCOCC2)c1OC` (stereo not given)?
Mtb bLac sens: -9

What do the screens show for `CCOc1cc(N2CCOCC2)c(OCC)cc1NC(=O)CSc1nnc(N)s1`?
Mtb bLac sens: 6

What do the screens show for `CCOC(=O)c1oc2ccccc2c1COC(=O)CNC(=O)c1cccc(C)c1`?
Mtb bLac sens: 2

How did Cc1coc2cc3oc(=O)c(CCC(=O)NCc4ccccn4)c(C)c3cc12 do in these assays?
Mtb bLac sens: 1

Results for CCCNC(=O)c1ccc(N2CCC3(CC2)CC(c2cccc(Br)c2)=NO3)c(N)c1 ?
Mtb bLac sens: 77

How did COc1ccc(S(=O)(=O)N2CCN(C(=O)[C@H](Cc3ccccc3)NC(=O)c3ccco3)CC2)cc1 do in these assays?
Mtb bLac sens: 0

How did COc1ccccc1-c1sc2ccccc2c1-c1ccc2c(c1)OCCO2 do in these assays?
Mtb bLac sens: 7

How did O=C(NCCc1ccc(C(F)(F)F)cc1)C1CC(=O)N(Cc2ccccc2)C1 (stereo not given) do in these assays?
Mtb bLac sens: -11

Results for CC(Sc1ccccn1)C(=O)Nc1ccc2c(c1)OCO2 (stereo not given) ?
Mtb bLac sens: -4

Results for Cc1c(C(=O)N2CCN(Cc3cccs3)CC2)oc2ccccc12 ?
Mtb bLac sens: 3

Results for Cn1c(CNC(=O)c2ccc3c(c2)OCO3)nnc1SCC(=O)Nc1ccc(F)cc1 ?
Mtb bLac sens: 1

Results for Cc1noc(C)c1C(=O)OCC(=O)NCCc1ccccc1 ?
Mtb bLac sens: -3

Results for NC(=O)C1CCN(c2nc(-c3ccccc3C(F)(F)F)cs2)CC1 ?
Mtb bLac sens: 7

How did COc1ccccc1N(CC(=O)Nc1ccccc1C(F)(F)F)S(=O)(=O)c1cccs1 do in these assays?
Mtb bLac sens: -4
